# PAFAH1B3 inh: blocks human PAF acetylhydrolase 1B catalytic subunit 3 | inhibition, % at 3.39 µM | 340,000 compounds, 0.28% hits | recombinant PAFAH1B3, FP-rhodamine probe, fluorescence polarization | AID 492972;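 active = inhibition above the screen-wide average of all tested compounds plus 3 SD, cut at about 25% in these data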;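 also: 0% = enzyme with DMSO only and 100% = wells lacking PAFAH1B3 protein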
# ZTA DNA inh: ZTA (EBV) inhibition in EBNA-1 counter-screen | ZTA-DNA binding, fluorescence polarization | inhibition, % at 11 µM | 320,000 compounds, 0.15% hits; in the data active = inhibition above about 33%
# PAFAH1B2 FP inh: blocks human PAF acetylhydrolase 1b catalytic subunit 2; 340,000 compounds, 1.2% hits; AID 492953; recombinant PAFAH1B2, FP-rhodamine activity probe, fluorescence polarization; P68402; inhibition, % at 3.39 µM;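 active = inhibition above the mean of all tested compounds plus 3 SD, cut at about 24% in these data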;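 also: 0% = enzyme with DMSO and 100% = wells lacking PAFAH1B2; many of its hits are not listed in these tables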
# LYPLA2 counter: LYPLA2 (human) inhibition in PME1 counter-screen; inhibition, % at 5.9 µM; recombinant LYPLA2, FP-Rh probe fluorescence polarization; 320,000 compounds, 0.38% hits; O95372;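 active = inhibition above the screen-wide mean plus 3 SD, limit set per campaign, cut at about 26% in these data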;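 also: 0% = LYPLA2 with DMSO and 100% = wells lacking LYPLA2 enzyme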
# LYPLA1 inh: LYPLA1 (human) inhibition in PME1 counter-screen; 320,000 compounds, 0.16% hits; inhibition, % at 5.9 µM; recombinant LYPLA1, FP-Rh probe fluorescence polarization;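 active = inhibition above the mean of all tested compounds plus 3 SD, set per campaign, cut at about 14% in these data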;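 also: inhibitors block serine hydrolase probe labeling of LYPLA1 so polarization falls; 0% = enzyme with DMSO and 100% = wells lacking LYPLA1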
# PREPL inhibitor: human PREPL enzyme inhibition. recombinant PREPL, fluorescence polarization activity-based probe. Q4J6C6. inhibition, % at 5.96 µM. 320,000 compounds, 0.68% hits; in the data active = inhibition above about 43%;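 also: 0% = enzyme with DMSO and 100% = wells lacking enzyme; many of its hits are not listed in these tables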
# Target sequence (Q4J6C6 whole entry, looked up): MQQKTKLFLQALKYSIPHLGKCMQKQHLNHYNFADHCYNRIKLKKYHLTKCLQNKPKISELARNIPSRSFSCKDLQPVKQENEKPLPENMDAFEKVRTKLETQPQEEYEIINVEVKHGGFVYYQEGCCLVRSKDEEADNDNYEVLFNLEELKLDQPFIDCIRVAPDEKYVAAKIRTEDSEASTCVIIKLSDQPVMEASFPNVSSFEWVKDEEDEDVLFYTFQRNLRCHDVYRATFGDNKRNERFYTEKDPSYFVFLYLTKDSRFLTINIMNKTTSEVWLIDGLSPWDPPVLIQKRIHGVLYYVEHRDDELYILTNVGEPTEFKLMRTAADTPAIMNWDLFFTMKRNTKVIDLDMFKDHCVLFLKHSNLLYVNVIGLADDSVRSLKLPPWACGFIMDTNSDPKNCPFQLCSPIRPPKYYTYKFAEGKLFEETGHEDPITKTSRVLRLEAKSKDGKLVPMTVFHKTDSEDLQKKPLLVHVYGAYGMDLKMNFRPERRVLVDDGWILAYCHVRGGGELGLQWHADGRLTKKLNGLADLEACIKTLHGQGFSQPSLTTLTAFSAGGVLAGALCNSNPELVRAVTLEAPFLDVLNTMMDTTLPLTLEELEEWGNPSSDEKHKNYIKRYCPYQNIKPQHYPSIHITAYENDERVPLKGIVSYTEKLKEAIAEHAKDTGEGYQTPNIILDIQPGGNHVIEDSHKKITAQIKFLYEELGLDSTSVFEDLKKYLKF
# * = called active by the depositor; & = joins results of further samples. Only part of the results is shown; count on the stated rates, not on these rows.
# Letter code: A = PAFAH1B3 inh; B = ZTA DNA inh; C = PAFAH1B2 FP inh; D = LYPLA2 counter; E = LYPLA1 inh; F = PREPL inhibitor
1) CCc1cc(=O)oc2c3c(cc(OCC(=O)NCc4cccnc4)c12)OC(C)(C)CC3
  A: -2	B: -6	C: 4	D: 8	E: 3	F: 23
2) COc1cc(Cc2cnc(N)nc2N)cc(OC)c1OC
  A: 6&5	B: 5&9	C: 3&-2	D: -1&1	E: 0&-1	F: -7&13
3) CC1CCc2c(C(=O)Oc3cccc(-n4cnnn4)c3)csc2C1 (stereo not drawn)
  A: 9	B: 15	C: 14	D: 7	E: -8	F: 39
4) CCCCc1oc2ccccc2c1C(=O)c1cc(I)c(OCCN(CC)CC)c(I)c1
  A: 6	B: 20	C: -4	D: 1	E: -2	F: -21
5) CCOc1cc(C(=O)OCC(=O)Nc2cccc(C)c2)ccc1OCC(=O)N1CCOCC1
  A: -2	B: 5	C: 4	D: 2	E: 1	F: 8
6) CC(C)c1ccc(C(=O)OCC(=O)NC2CCCC2)cc1
  A: 3	B: -2	C: -3	D: 13	E: 1	F: 7
7) Cc1ccc(NC(=O)C(=O)N2CCCC2)cc1Cl
  A: 1	B: -8	C: 6	D: -7	E: -1	F: 3
8) O=C(COC(=O)/C=C/c1ccccc1Cl)NC1CCCC1
  A: 3	B: 5	C: 3	D: -5	E: -2	F: 2
9) Cc1c(C)c2c(OCC(=O)N3CCC(O)CC3)cc3c(c2oc1=O)CCC(C)(C)O3
  A: 4	B: 7	C: 4	D: 10	E: 4	F: 1
10) Cc1c(C)c2c(OCC(=O)NCc3cccnc3)cc3c(c2oc1=O)CCC(C)(C)O3
  A: 10	B: 1	C: 3	D: 0	E: 1	F: 6
11) O=C(CCCN1CCC(O)(c2ccc(Cl)cc2)CC1)c1ccc(F)cc1
  A: 5	B: 0&10	C: 5	D: 12&10	E: 0&1	F: -5&0
12) O=C(OCC(=O)N1CCCC1=O)c1ccc(Cl)cc1[N+](=O)[O-]
  A: 1	B: -1	C: 17	D: 5	E: 2	F: -3
13) CC(=O)Oc1ccc(-c2cc3ccc(OC(C)=O)cc3oc2=O)cc1
  A: 5	B: 5	C: 4	D: 5	E: 2	F: 3
14) CC1(C)[C@H](C(=O)O)N2C(=O)C[C@H]2S1(=O)=O
  A: 4	B: -5	C: 12	D: 9	E: 0	F: -7
15) C=CCN(C(=O)CSc1nc2[nH]ncc2c(=O)n1-c1ccccc1OC)c1ccccc1
  A: -3	B: -6	C: 1	D: -2	E: 1	F: -2
16) CC(C)NCC(O)COc1cccc2[nH]ccc12 (stereo not drawn)
  A: -1	B: -4	C: -2	D: 1	E: 0	F: 5
17) Cc1ccc(N=Cc2nc(-c3ccco3)oc2O)cc1
  A: 12	B: -14	C: 1	D: 5	E: 2	F: 7
18) Cc1ccc2c(c1)c(Sc1ccccc1)c(CC(=O)O)n2C
  A: 4	B: 8	C: 0	D: 9	E: 5	F: 1
19) CC(C)c1cc(=O)n2[nH]c(SCc3ccccc3)nc2n1
  A: 6	B: -2	C: 6	D: 2	E: -1	F: 3
20) CCOC(=O)C1=C(COCCN)NC(C)=C(C(=O)OC)C1c1ccccc1Cl (stereo not drawn)
  A: 10&7&-8	B: 0&-7&-4	C: -4&2&-3	D: 7&-7&1	E: 4&-1&5	F: 4&-3&3
21) N#Cc1ccccc1CSc1nc(O)cc(=O)[nH]1
  A: 4	B: -5	C: 8	D: -1	E: -2	F: -3
22) Nc1ccc(C(=O)OCC(=O)Nc2ccc([N+](=O)[O-])cc2C(F)(F)F)cc1
  A: -8	B: 7	C: 6	D: -1	E: -2	F: 8
23) Cc1nc2cc(C(=O)OCC(=O)Nc3ccc(C#N)cc3)ccc2n1-c1ccccc1
  A: 2	B: 12	C: 1	D: -6	E: -12	F: 23
24) CCOC(=O)C1=C(C)NC(C)=C(C(=O)OC)C1c1cccc(Cl)c1Cl (stereo not drawn)
  A: -7	B: 2	C: -1	D: 3	E: 9	F: 20
25) Cc1nc(=O)c(-c2ccccc2)c(C)n1-c1ccc(O)c(C(=O)O)c1
  A: 5	B: 7	C: 2	D: 2	E: -1	F: 5
26) O=C(O)COCCN1CCN(C(c2ccccc2)c2ccc(Cl)cc2)CC1 (stereo not drawn)
  A: 3	B: 3	C: 6	D: -2	E: -4	F: -1
27) CN1CCN(C2=Nc3cc(Cl)ccc3Nc3ccccc32)CC1
  A: 2	B: -1	C: 4	D: 5	E: 1	F: 7

# Quoted from the listing.
# O=C(O)COCCN1CCN(C(c2ccccc2)c2ccc(Cl)cc2)CC1 (stereo not drawn) in PAFAH1B3 inh reads 3
# CC1(C)[C@H](C(=O)O)N2C(=O)C[C@H]2S1(=O)=O in PAFAH1B2 FP inh reads 12
# CC(C)c1cc(=O)n2[nH]c(SCc3ccccc3)nc2n1 in LYPLA2 counter reads 2

# A draw from above in order of count of non-hydrogen atoms, smallest number first.
# Letter code: A = PAFAH1B3 inh; B = ZTA DNA inh; C = PAFAH1B2 FP inh; D = LYPLA2 counter; E = LYPLA1 inh; F = PREPL inhibitor
2) COc1cc(Cc2cnc(N)nc2N)cc(OC)c1OC
  A: 6&5	B: 5&9	C: 3&-2	D: -1&1	E: 0&-1	F: -7&13
18) Cc1ccc2c(c1)c(Sc1ccccc1)c(CC(=O)O)n2C
  A: 4	B: 8	C: 0	D: 9	E: 5	F: 1
20) CCOC(=O)C1=C(COCCN)NC(C)=C(C(=O)OC)C1c1ccccc1Cl (stereo not drawn)
  A: 10&7&-8	B: 0&-7&-4	C: -4&2&-3	D: 7&-7&1	E: 4&-1&5	F: 4&-3&3

# Entries of single compounds from above:
# Profile of CCCCc1oc2ccccc2c1C(=O)c1cc(I)c(OCCN(CC)CC)c(I)c1 → PAFAH1B3 inh: 6; ZTA DNA inh: 20; PAFAH1B2 FP inh: -4; LYPLA2 counter: 1; LYPLA1 inh: -2; PREPL inhibitor: -21
# Profile of CC(C)c1ccc(C(=O)OCC(=O)NC2CCCC2)cc1 → PAFAH1B3 inh: 3; ZTA DNA inh: -2; PAFAH1B2 FP inh: -3; LYPLA2 counter: 13; LYPLA1 inh: 1; PREPL inhibitor: 7

# Source: PubChem BioAssay (The Scripps Research Institute Molecular Screening Center)
